Assay outcomes from PubChem.
eIF4H FP inh – inhibitors of RNA binding by human eIF4H; actives 0.94% (n = 290,000); inhibition, % at 35 µM; eIF4H fluorescence polarization binding assay; Q15056; AID 2012;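 further: calls also rest on retests at 20 µM and on dose response follow-up; 0% = protein and probe with vehicle and 100% = probe without protein; strong numbers were not always called active; many hits fall short of the cut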
PABP FP inh – blocks human PABP binding to poly(A) RNA; fluorescence polarization; inhibition, % at 35 µM; actives 1% (n = 290,000); AID 2014;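 further: calls also rest on retests at 20 µM and on dose response follow-up; controls were probe without protein and protein plus probe with vehicle; some compounds called inactive have numbers as strong as hits; many hits fall short of the cut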
Target sequence (P11940 whole entry, looked up): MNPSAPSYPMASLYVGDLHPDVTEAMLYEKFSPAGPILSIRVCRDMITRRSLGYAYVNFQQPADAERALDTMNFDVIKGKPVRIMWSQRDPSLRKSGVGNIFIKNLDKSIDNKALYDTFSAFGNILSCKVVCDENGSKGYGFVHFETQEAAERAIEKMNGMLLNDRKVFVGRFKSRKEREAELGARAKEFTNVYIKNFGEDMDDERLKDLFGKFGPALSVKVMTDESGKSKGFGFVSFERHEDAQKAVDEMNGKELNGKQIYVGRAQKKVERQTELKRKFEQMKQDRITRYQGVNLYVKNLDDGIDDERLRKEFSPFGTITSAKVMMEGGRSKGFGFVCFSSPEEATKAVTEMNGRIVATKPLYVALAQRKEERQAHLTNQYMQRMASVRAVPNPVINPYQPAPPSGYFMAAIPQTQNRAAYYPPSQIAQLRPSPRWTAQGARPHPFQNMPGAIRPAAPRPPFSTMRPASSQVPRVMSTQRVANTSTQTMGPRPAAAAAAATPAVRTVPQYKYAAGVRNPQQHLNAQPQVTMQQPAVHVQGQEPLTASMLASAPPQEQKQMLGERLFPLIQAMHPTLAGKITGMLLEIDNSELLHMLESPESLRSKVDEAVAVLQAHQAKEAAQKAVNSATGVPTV
eIF4H FP inh retest – also measured in eIF4H FP inh; calls as there; inhibition, %; compound at 20 µM; confirmation average;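 mean of two retest wells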
PABP FP inh retest – further read-out of PABP FP inh, marked with its call; inhibition, %; compound at 20 µM; confirmation repeats;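 mean of two retest wells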
An asterisk follows results filed as active; u = inconclusive.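 How the source made its calls: active means 50% or more with normal probe brightness, or confirmed in later tests; inconclusive means above 50% with abnormal brightness, or retests that disagree; inactive means below 50% or failed in later tests; about a fifth of its hits are not listed in these tables.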 An excerpt, so the mix of outcomes need not match the whole.

SMILES	eIF4H FP inh	PABP FP inh	others
CCC(CC)C(=O)NCCc1cc2ccc(C)c(C)c2[nH]c1=O	-3	-6
Cc1ccnc(NC(=O)c2c(O)c3ccccc3n(C)c2=O)c1	0	-2
c1ccc2c(N3CCCCC3)nnc(N3CCCCC3)c2c1	-1	-10
N#Cc1c2c(c(N3CCN(c4ccccn4)CC3)n3c1nc1ccccc13)CCC2	-8	-1
CN1CCN(c2c(F)cc3c(=O)c(C(=O)O)cn(CCF)c3c2F)CC1	3	2
Cc1nc2cc(-c3ccccc3)nn2c(C)c1CCC(=O)N1CCN(c2ccccn2)CC1	-4	-10
CCn1c(SCc2nnc(-c3ccccc3)o2)nc2c1c(=O)n(C)c(=O)n2C	0	-9
CCCOc1ccc(/C(O)=C2/C(=O)C(=O)N(CCCN3CCOCC3)C2c2ccncc2)cc1 (configuration not stated)	4	-11
O=C(NCCc1c[nH]c2ccccc12)[C@@H]1C[C@H]1[C@@H](NP(=O)(c1ccccc1)c1ccccc1)c1ccccc1	2	-16
Cc1cc(NC(=O)CN2CC3CC(C2)c2cccc(=O)n2C3)nc2c1c(=O)oc1ccccc12 (configuration not stated)	20	14
CCCCNc1n[n+](C)c(-c2cccc(C)c2)s1	-1	7
CC(C)Sc1n[nH]c2nc3c(c(=O)n12)C1(CCCC1)Cc1ccccc1-3	13	0
CCn1c(C)nc2cc(C(=O)n3cc(C(=O)c4ccccc4O)cn3)ccc21	-6	-2
O=C1CC(c2ccc(F)cc2)Cc2nc(N3CCc4ccccc43)ncc21 (configuration not stated)	-5	7
Cn1c(=O)c2cnc(N3CCOCC3)nc2n(C)c1=O	3	-5
O=c1c2ccccc2oc2nc(-c3ccco3)n(CCc3ccccc3)c(=O)c12	-1	0
COc1c(N2CCN(C(=S)Nc3ccccc3)C(C)C2)c(F)cc2c(=O)c(C(=O)O)cn(C3CC3)c12 (configuration not stated)	-4	-1
COc1ccc(CCn2c(=O)[nH]c3cc(C(=O)NCCc4ccccc4)ccc3c2=O)cc1OC	2	-9
Cc1cc(C)c2cc(CN(CCO)C(c3nnnn3Cc3ccc(F)cc3)C(C)C)c(=O)[nH]c2c1 (configuration not stated)	4	9
COc1cc(-c2nnc(CSc3nc4ccccc4s3)o2)cc(OC)c1OC	-6	-6
Cc1nc2c(c(=O)n1Cc1ccccc1Cl)c1nc3ccccc3nc1n2Cc1ccco1	34	52	eIF4H FP inh retest=6;PABP FP inh retest=21
Cc1ccccc1-c1nnc(NC(=O)c2cc3ccccc3oc2=O)s1	9	-1
COc1cc2cc(C)c3nnc(SCC(N)=O)n3c2cc1OC	1	-4
COc1ccc(N2CCN(C(=O)COc3ccccc3)CC2)cc1	-8	0
COC(=O)c1cc(Br)c(=O)n(-c2ccc(C(C)=O)cc2)c1	-2	-4
CN1C(=O)c2oc3ccc(Br)cc3c(=O)c2C1c1ccncc1 (configuration not stated)	-1	-3
O=C(CCCSc1nnnn1-c1ccccc1)c1ccc(F)cc1	-2	-7
N#Cc1c2c(c(N3CCN(CCO)CC3)n3c1nc1ccccc13)CCCC2	-6	-1
CCCCNC(=O)c1cc2c(=O)n3cccc(C)c3nc2n1C	-13	4
Cc1ccc2nc3c(cc(C#N)c(=O)n3CC3CCCO3)c(=O)n2c1 (configuration not stated)	32*	57*	eIF4H FP inh retest=71*;PABP FP inh retest=100*
CC(C)CCn1c(=O)c2ccccc2n2c(COC(=O)c3ccc(S(=O)(=O)N(C)C)cc3)nnc12	0	-11
O=C(N/N=C/c1c(Nc2cccc(C(F)(F)F)c2)nc2ccccn2c1=O)c1ccccc1	8	2
CCN(CC)CCN1C(=O)C(=O)/C(=C(/O)c2ccc(OC)cc2)C1c1cccs1 (configuration not stated)	6	5
CN(C(=O)COc1ccc(Cl)cc1)c1nnc(C23CC4CC(CC(C4)C2)C3)s1	2	-5
CCOC(=O)N1CCN(Cc2nc3c(c(=O)n(C)c(=O)n3C)n2Cc2cc(C)ccc2C)CC1	1	5
CN=C1S/C(=C\c2ccc(Sc3ccc(Cl)cc3)o2)C(=O)N1C	2	-6
CCOc1cc(/C=C(\C#N)C(=O)Nc2ccccc2[N+](=O)[O-])ccc1OCc1cccc2ccccc12	-2	7
COc1ccc(C2C=C(c3cccs3)Nc3nc(CCCO)nn32)cc1 (configuration not stated)	u	u
COc1cc(C2C(N3C(=O)c4ccccc4C3=O)C(=O)N2c2cccc(C)c2)cc(OC)c1OC (configuration not stated)	-10	-1
Cc1ccc2c(c1)NC(=O)C(CC(=O)NCCCN1CCN(C3CCCCC3)CC1)O2 (configuration not stated)	-4	-6

21 successive entries from above, quoted:
SMILES	eIF4H FP inh	PABP FP inh	others
COc1c(N2CCN(C(=S)Nc3ccccc3)C(C)C2)c(F)cc2c(=O)c(C(=O)O)cn(C3CC3)c12 (configuration not stated)	-4	-1
COc1ccc(CCn2c(=O)[nH]c3cc(C(=O)NCCc4ccccc4)ccc3c2=O)cc1OC	2	-9
Cc1cc(C)c2cc(CN(CCO)C(c3nnnn3Cc3ccc(F)cc3)C(C)C)c(=O)[nH]c2c1 (configuration not stated)	4	9
COc1cc(-c2nnc(CSc3nc4ccccc4s3)o2)cc(OC)c1OC	-6	-6
Cc1nc2c(c(=O)n1Cc1ccccc1Cl)c1nc3ccccc3nc1n2Cc1ccco1	34	52	eIF4H FP inh retest=6;PABP FP inh retest=21
Cc1ccccc1-c1nnc(NC(=O)c2cc3ccccc3oc2=O)s1	9	-1
COc1cc2cc(C)c3nnc(SCC(N)=O)n3c2cc1OC	1	-4
COc1ccc(N2CCN(C(=O)COc3ccccc3)CC2)cc1	-8	0
COC(=O)c1cc(Br)c(=O)n(-c2ccc(C(C)=O)cc2)c1	-2	-4
CN1C(=O)c2oc3ccc(Br)cc3c(=O)c2C1c1ccncc1 (configuration not stated)	-1	-3
O=C(CCCSc1nnnn1-c1ccccc1)c1ccc(F)cc1	-2	-7
N#Cc1c2c(c(N3CCN(CCO)CC3)n3c1nc1ccccc13)CCCC2	-6	-1
CCCCNC(=O)c1cc2c(=O)n3cccc(C)c3nc2n1C	-13	4
Cc1ccc2nc3c(cc(C#N)c(=O)n3CC3CCCO3)c(=O)n2c1 (configuration not stated)	32*	57*	eIF4H FP inh retest=71*;PABP FP inh retest=100*
CC(C)CCn1c(=O)c2ccccc2n2c(COC(=O)c3ccc(S(=O)(=O)N(C)C)cc3)nnc12	0	-11
O=C(N/N=C/c1c(Nc2cccc(C(F)(F)F)c2)nc2ccccn2c1=O)c1ccccc1	8	2
CCN(CC)CCN1C(=O)C(=O)/C(=C(/O)c2ccc(OC)cc2)C1c1cccs1 (configuration not stated)	6	5
CN(C(=O)COc1ccc(Cl)cc1)c1nnc(C23CC4CC(CC(C4)C2)C3)s1	2	-5
CCOC(=O)N1CCN(Cc2nc3c(c(=O)n(C)c(=O)n3C)n2Cc2cc(C)ccc2C)CC1	1	5
CN=C1S/C(=C\c2ccc(Sc3ccc(Cl)cc3)o2)C(=O)N1C	2	-6
CCOc1cc(/C=C(\C#N)C(=O)Nc2ccccc2[N+](=O)[O-])ccc1OCc1cccc2ccccc12	-2	7

(continued)
SMILES	eIF4H FP inh	PABP FP inh	others
CCCOc1ccc(C(=O)NC(=S)Nc2nc3ccc(C)cc3s2)cc1	2	6
Clc1ccc(-c2nnc3sc(-c4ccco4)nn23)c(Cl)c1	-5	-10
COc1cc(-c2nnc(COC(=O)c3c4c(nc5ccccc35)CCCC4)o2)cc(OC)c1OC	-13	-4
Cn1c(=O)c2c(nc(Oc3ccccn3)n2C)n(C)c1=O	5	-1
CCn1cc(C(=O)O)c(=O)c2cnc(N3CCN(C(=O)Nc4cccc5ccccc45)CC3)nc21	18	21
Cc1nc(NC2=NCN(CCc3ccccc3)CN2)nc2ccccc12	0	4
CSc1nnc2n(C3CCCCC3)c(=O)c3c4c(sc3n12)CCCC4	4	4
FC(F)(F)c1ccccc1C1C2=C(Nc3ncnn31)c1ccccc1CCC2 (configuration not stated)	6	-14
Cc1ccc(NC2=NC(c3ccco3)n3c(nc(C)cc3=O)N2)c(C)c1 (configuration not stated)	-1	4
Cc1oc(-c2ccc(Cl)cc2)cc1-c1nn2c(-c3ccco3)nnc2s1	64*	56*
Cn1c(=O)c2c(nc(Br)n2Cc2c(F)cccc2Cl)n(C)c1=O	-2	2
CCOc1ncccc1C(=O)OCC(=O)Nc1cc(C(=O)OC)ccc1C(=O)OC	-17	1
Cc1nc2cc(-c3ccc(F)cc3)nn2c(N2CCOCC2)c1C	10	3
COc1cc(/C=N/NC(=O)c2cncc(Br)c2)ccc1OC(=O)c1ccc2c(c1)OCO2	14	0
COCCCNc1ncnc2c1[nH]c1ccccc12	10	0
N=C1C(c2nc3ccccc3c(=O)[nH]2)=C(O)CN1c1ccccc1	-5	-2
COc1ccc(CCN(Cc2cc3cc4c(cc3[nH]c2=O)OCO4)C(C)=O)cc1OC	-5	-3
COC(=O)c1ccc2c(c1)N(Cc1cc(C)ccc1C)C(=O)c1ccccc1S2=O (configuration not stated)	-6	5
CCOC(=O)c1cn(-c2nc(-c3ccc(Cl)cc3)cs2)c2c(F)c(N3CC(C)OC(C)C3)c(F)cc2c1=O (configuration not stated)	-2	-5
Cc1cc(C)c(C)c(C(=O)CSc2nnc(C)c(=O)[nH]2)c1C	1	-7
COC(=O)C1CCN(C(=O)COC(=O)Cn2cnnn2)CC1	4	7
CCOC(=O)C1=C(N)n2c(s/c(=C\c3cccnc3)c2=O)=C(C(=O)OCC)C1c1cccnc1 (configuration not stated)	-4	4
COc1ccc(CNC(=O)COC(=O)c2cc(-c3ccco3)nc3ccccc23)cc1	90*	44	eIF4H FP inh retest=84*;PABP FP inh retest=46
CCC(C)C(NC(=O)C1CCC(C)CC1)C(=O)NC1CCN(Cc2ccccc2)CC1 (configuration not stated)	-10	3
CC(=O)N1CCc2ccc(C(=O)CN3CCN(c4cccc(C)c4C)CC3)cc21	-11	5
O=C(c1cc2ccccn2n1)N1CCCC1	-5	3
O=C(O)c1ccccc1S	-1	-14
CCCn1c(SCC(=O)Nc2nnc(CC)s2)nc2c1c(=O)n(C)c(=O)n2C	-2	9
O=C(c1ccccc1)c1ccc(N2CCNCC2)cc1	-6	-12
CCOc1cccc(C2c3c(oc4cc(C)c(C)cc4c3=O)C(=O)N2CCCN(C)C)c1 (configuration not stated)	1	-9
CC[C@H](C)[C@@H](NC(=O)O[C@@H]1C(=O)c2cc(Br)ccc2O[C@H]1c1ccc2c(c1)OCO2)C(=O)OC	1	0
COc1ccc(N2CCCn3c2nc2c3c(=O)n(Cc3ccccc3F)c(=O)n2C)cc1	5	-9
CN1C(=O)/C(=C2\SC(=S)N(CC3CCCO3)C2=O)c2ccccc21 (configuration not stated)	6	20
O=C(NC1=NCCS1)c1cccc(S(=O)(=O)N2CCCCC2)c1	-6	-2
CC(=O)Nc1cccc(NC(=O)CSc2nnnn2-c2ccc3c(c2)OCO3)c1	9	-5
CC[C@@H]1C=C(C)C[C@H](C)C[C@H](OC)[C@H]2O[C@@](O)(C(=O)C(=O)N3CCCC[C@H]3C(=O)O[C@H](/C(C)=C/[C@@H]3CC[C@@H](O)[C@H](OC)C3)[C@H](C)[C@@H](O)CC1=O)[C@H](C)C[C@@H]2OC	-4	8
COc1cccc(-n2nnnc2SCC(=O)c2cc(OC)ccc2OC)c1	6	-11
O=S(=O)(c1cc(-c2nc3ccccc3s2)ccc1Cl)N1CCOCC1	-2	-14
O=C1c2ccc3c4c(ccc(c24)C(=O)N1Cc1cccnc1)C(=O)N(Cc1cccnc1)C3=O	-1	7
CCOC(=O)c1sc(NC(=O)C2CCCO2)c(C(=O)OCC)c1C (configuration not stated)	61	39	eIF4H FP inh retest=39;PABP FP inh retest=12

Structures above containing a CF3 group:
SMILES	eIF4H FP inh	PABP FP inh	others
O=C(N/N=C/c1c(Nc2cccc(C(F)(F)F)c2)nc2ccccn2c1=O)c1ccccc1	8	2
FC(F)(F)c1ccccc1C1C2=C(Nc3ncnn31)c1ccccc1CCC2 (configuration not stated)	6	-14

Next records.
SMILES	eIF4H FP inh	PABP FP inh	others
C#CCOCCOCCOCCNc1nc(N2CCN(C(=O)[C@H](CCC(=O)O)n3cc(C(N)CO)nn3)CC2)nc(N2CCN(C(=O)[C@H](CCC(=O)O)n3cc(C(N)CO)nn3)CC2)n1 (some centres not stated)	0	4
Clc1ccc(-c2nn3c(-c4cccc(Cl)c4)nnc3s2)cc1	-8	-9
N#CC(c1nc2ccccc2nc1N1CCCCC1)S(=O)(=O)c1ccc(Cl)cc1 (configuration not stated)	116	77	eIF4H FP inh retest=-1;PABP FP inh retest=8
Cc1ccc2nc3sc(-c4nnc(-c5ccccc5[N+](=O)[O-])o4)c(N)c3cc2c1	12	-8
Cc1nnc2c3cnn(-c4ccc(Cl)cc4)c3ncn12	3	3
CON1C(=O)CN(C(C)=O)C1c1ccc(Cl)cc1Cl (configuration not stated)	4	-4
COc1ccc(NC(=O)Cc2nn(C)c(=O)c3ccccc23)c2ncccc12	-5	-10
Cc1nn2c(N3CCN(C(=O)c4ccco4)CC3)cc(C(C)(C)C)nc2c1-c1ccc(Cl)cc1	2	-10
Cn1c(=O)c2[nH]c(-c3ccccc3)nc2n(C)c1=O	-5	37
Cc1ccc(C2(C)NC(=O)N(CC(=O)NC(=O)NC3CCCC3)C2=O)cc1 (configuration not stated)	0	-7
CCOC(=O)c1[nH]c(C)c(/C(O)=C2\C(=O)C(=O)N(CCCN(C)C)C2c2ccncc2)c1C (configuration not stated)	2	6
CCCNC(=O)C(C)n1c2ccccc2c2nc(=O)cc(C)n21 (configuration not stated)	4	6
Cc1cc(C)cc(NC(=O)Cn2c(SCc3cc(C)ccc3C)nc3ccncc32)c1	-2	-3
